# VACV Venus inh: inhibitors of vaccinia virus (Venus reporter). AID 720580. Vaccinia virus Venus reporter expression, fluorescence. Potency, µM (highest dose often 36.5 µM), inactives show top-dose activity change, negative = inhibition, most hits filed as inhibitors. actives 0.46% (n = 330,000); active means well fitted inhibition curve with a large enough effect; inconclusive means small, poorly fitted or top-dose-only effect; inactive means no such curve, though single readings can be large or run the other way; tested in A549 cells; note: nearly all actives have a fitted effect of over 30% in size; inactives centre near -10
# Vaccinia mCherry: inhibitors of vaccinia virus infection (mCherry reporter signal) | Vaccinia virus mCherry reporter infection, fluorescence; about a quarter of the inactives have no number | Potency, µM (highest dose often 36.5 µM), for inactives: at the highest dose activity change, negative = inhibition, most hits filed as inhibitors | actives 0.63% (n = 310,000) | AID 720579; active = well fitted inhibition curve with a large enough effect; inconclusive = small, poorly fitted or top-dose-only effect; inactive = no such curve, though single readings can be large or run the other way; tested in A549 cells; note: nearly all actives have a fitted effect of over 35% in size; inactives centre near -10
# * hit, by the source's call; i = inactive; ? = inconclusive; / = not tested or not shown; & = joins results of further samples; [ ] = another dose, or the depositor's remark. % is set by controls: 0 for no effect and ±100 for the full control effect; potency is the fitted concentration of half-maximal effect.
SMILES,VACV Venus inh,Vaccinia mCherry
COc1cccc(C=NCCNC(=O)c2nonc2N)c1O,-0.5%,-10.1%
Cc1ccc(OCC(=O)NCCN2CCCC2)cc1,4.9%,-9.2%
O=C(c1ccc2c(c1)OCO2)N(c1ccccc1)C1C=CS(=O)(=O)C1 (stereo unspecified),-16.9%,/
COc1ccc(N(C(=O)C2COc3ccccc3O2)C(C(=O)NC2CCCCC2)c2ccccc2)cc1OC (stereo unspecified),-8.4%,-11.3%
CCC1CN(C(=O)N2CCC(C(=O)NCCC3=CCCCC3)CC2)c2cc(C)ccc2O1 (stereo unspecified),-5.7%,15.4%
CCOC(=O)C1(C)C(=O)CC2c3nc4ccccc4cc3CN2C1=O (stereo unspecified),7.6%,-8.1%
Cc1ccc(-c2c[n+](CC(=O)c3ccc(Br)cc3)c3n2CCCCC3)cc1,-13.9%,-26.6%
CNC(=O)CN1C(=O)NC2(CCc3ccccc3C2)C1=O (stereo unspecified),-4.0%,4.9%
Cc1ccc(OCC(=O)Nc2ccccc2-c2ccccc2)cc1,-12.3%,-15.8%
COc1cc(C(=O)OCC(=O)Nc2c(C)n(C)n(-c3ccccc3)c2=O)c([N+](=O)[O-])cc1OC,3.3%,-16.0%
Cc1ccccc1CN1CCc2nc(N3CCN(c4ncccn4)CC3)ncc2C1,-18.2%,-11.5%
COc1ccc2[nH]c(C(=O)N3CCCN(Cc4ccc(F)cc4)CC3)cc2c1,-18.1%,-13.6%
CCOC(=O)[C@@H]1[C@H]2COc3ccc(Br)cc3[C@@H]2N2C(=O)N(c3ccc(C)cc3)C(=O)[C@@]12C,-18.4%,i
C/C(CC(=O)Nc1ccccc1F)=N\NC(=O)Cc1ccc(Cl)cc1,-5.3%,-5.2%
CCn1c2ccccc2c2cc(NC(=O)c3ccc(=O)oc3)ccc21,9.1%,?

# Profiles, quoted from the list:
# CNC(=O)CN1C(=O)NC2(CCc3ccccc3C2)C1=O (stereo unspecified) in the list: VACV Venus inh = -4.0%; Vaccinia mCherry = 4.9%
# CCOC(=O)[C@@H]1[C@H]2COc3ccc(Br)cc3[C@@H]2N2C(=O)N(c3ccc(C)cc3)C(=O)[C@@]12C in the list: VACV Venus inh = -18.4%; Vaccinia mCherry = i
# Cc1ccccc1CN1CCc2nc(N3CCN(c4ncccn4)CC3)ncc2C1 in the list: VACV Venus inh = -18.2%; Vaccinia mCherry = -11.5%

# Additional records follow.
SMILES,VACV Venus inh,Vaccinia mCherry
CC(C)(C)c1ccc(S(=O)(=O)NC(=O)C2(C)CCN2C(=O)C2CCCCC2)cc1 (stereo unspecified),-22.5%,i
Cc1cccc(N2CCN(C(=O)C3CCN(Cc4nc(-c5ccc(Cl)cc5)oc4C)CC3)CC2)c1C,-18.7%,-9.9%
C=CCOc1cccc(C(=O)N2CCCC(Nc3ccc4c(c3)OCCO4)C2)c1 (stereo unspecified),-12.8%,i
O=C(Nc1ccc(Cl)cc1)C1CCN(c2nc3ccccc3n3cccc23)CC1,-20.9%,-18.3%
Cc1cc(C(F)F)n2ncc(C(=O)NCc3ccccc3C(F)(F)F)c2n1,-20.8%,/
COc1cccc(-c2cc(NC=O)c3ncc(-c4ccc(C(C)=O)cc4)n3c2)c1,?,-24.3%
O=C(Oc1ccc(-c2ccccc2)cc1)N1CCOCC1,-19.1%,-1.2%
O=C(NC(=S)Nc1ccc(S(=O)(=O)N2CCCC2)cc1)c1cccs1,-14.3%,i
Cc1ccc(NC(C)C(=O)N/N=C/c2c[nH]c3ccccc23)cc1 (stereo unspecified),5.0%,-17.8%
COC(=O)C1=CN(c2cccc(Cl)c2)C=C(C(=O)OC)C1c1cccc(OC)c1,-6.7%,-17.6%
COc1ccc(N(CC(=O)NC2CCCCC2)C(=O)c2snc(C(N)=O)c2N)cc1,-2.8%,-20.6%
CC(NC(=O)CNC(=S)N(Cc1ccccc1)Cc1cccnc1)c1ccccc1 (stereo unspecified),-25.5%,-5.7%
COc1ccc(C(=O)NCC(C)(C)CNC(=O)c2ccc(OC)cc2)cc1,-8.7%,i
Cc1cccc(C2=NC(C(F)(F)F)(C(F)(F)F)c3c(n(-c4ccc(F)cc4)c(=O)[nH]c3=O)N2)c1,-26.0%,?
CCC(NC(=O)C1C2C=CC(C2)C1C(=O)O)c1ccc(C)cc1 (stereo unspecified),-11.3%,-5.5%
CCCOP(=O)(c1ccc(N(C)C)cc1)C(O)c1ccc(Br)cc1 (stereo unspecified),2.1%,i
CC(C)(C)c1ccc(-n2ncc3c2CCCC3NC(=O)c2ccco2)cc1 (stereo unspecified),-28.3%,-0.7%
CC1(C)OC(=O)C(=CNC(=O)c2c(F)cccc2F)C(=O)O1,-6.2%,-1.0%
COc1ccc(C(=O)C[n+]2ccc3c(c2)nc(-c2ccccc2)n3C)cc1,-3.6%,i
Cc1cccc(C)c1NC(=S)N/N=C/c1ccccc1C(=O)O,1.5%,-11.8%
O=C(CSc1ccccn1)N1CCN(S(=O)(=O)c2ccc(Cl)cc2)CC1,0.5%,-26.6%
O=C(N/N=C/c1cccnc1)c1ccc(Cn2cc([N+](=O)[O-])cn2)o1,-14.4%,i
CC1CCCCC1NC(=O)Cc1ccc(S(=O)(=O)N2CCOCC2)s1 (stereo unspecified),-5.5%,-12.8%
COc1cc(-c2noc(-c3ccc(N4CCCCC4)c([N+](=O)[O-])c3)n2)cc(OC)c1OC,4.5%,1.7%
COc1cc(S(=O)(=O)Nc2ccc3c(c2)C(=O)N(C)C3=O)ccc1NC(C)=O,-5.7%,i
COc1ccc(-c2nc(N)ncc2Oc2ccccc2Br)c(O)c1,?,/
Cc1ccc(Cl)cc1N1CCN(S(=O)(=O)c2ccc3c(c2)CC(=O)N3C)CC1,-8.3%,-8.6%
COc1cc(C(=O)N(Cc2ccc(N(C)C)cc2)CC2CCCO2)cc(OC)c1OC (stereo unspecified),-6.2%,-5.0%
COc1cccc(N(C(=O)c2cnccn2)C(C(=O)NC2CCCCC2)c2ccc(Cl)cc2)c1 (stereo unspecified),-25.8%,-23.7%
NC(=O)c1nsc(C(=O)N(c2ccccc2)C(C(=O)NC2CCCC2)c2cccs2)c1N (stereo unspecified),-14.6%,-16.4%
CCCCCN(C(=O)CCC(=O)OCC(=O)N1C(C)CCCC1C)c1c(N)n(CCCC)c(=O)[nH]c1=O (stereo unspecified),-10.6%,i
CC1(C)NC(=O)N(CC(=O)OCC(=O)Nc2cccc(F)c2)C1=O,-11.4%,-19.3%
COc1ccccc1NC(=S)N(CCc1ccc(OC)c(OC)c1)Cc1ccccn1,1.0%,-2.6%
C#CCN(C[C@@H]1[C@@H](OC(=O)NCC2CCCCC2)[C@@H](OC(=O)NCC2CCCCC2)Cn2c(=O)n(CCCCCC)c(=O)n21)S(=O)(=O)c1ccc(C)cc1,-16.7%,i
O=C1C2Sc3[nH]c(=O)sc3C(c3ccccc3)C2C(=O)N1c1ccc(Cl)cc1 (stereo unspecified),-12.2%,/
CCCn1c(SCC(=O)Nc2ccc3c(c2)OCCO3)nnc1-c1ccco1,1.4%,i
O=C1CCC/C=C/C[C@@H](CC(=O)N(CCO)Cc2ccccc2)C(=O)NC[C@H](c2ccccc2)O1,-18.0%,i
O=[N+]([O-])c1cccc(NC(=S)NCCc2ccccc2)c1,-21.1%,?
Cc1cccc(-n2c(=O)c3ccccc3n3c(=S)[nH]nc23)c1C,0.6%,i
COC(=O)CCC(=O)Nc1cccc(C(=O)Nc2cccc(Cl)c2)c1,-7.2%,i
O=C(NCC1CCCO1)c1cccc(NC(=O)c2ccc(Br)cc2)c1 (stereo unspecified),-13.3%,4.6%
O=C(NCc1ccccc1Cl)C1CCCN(C(=O)c2cnn(-c3ccccc3)c2-n2cccc2)C1 (stereo unspecified),-8.2%,-11.1%
O=S(=O)(c1ccccc1)c1nc(-c2ccccc2F)oc1N1CCOCC1,7.6%,-3.1%
COC(=O)c1ccc2nc(-c3ccc(OC)c(OC)c3)c(Cc3cccc(F)c3)n2c1,1.8%,i
COCCNc1nc(-c2ccc(Cl)cc2C)c2sccc2n1,18.6%,11.2%
O=C(c1ccc2c(c1)OCO2)N1CCC2(CC1)Oc1ccc(F)cc1C(=O)C21CC(c2cccnc2)=NO1 (stereo unspecified),-19.1%,i
Cc1c(N)c(C(C)(C)C)cc(C(C)(C)C)c1[N+](=O)[O-],-16.6%,-19.1%
O=C(CN1CCN(c2ccccn2)CC1)NCc1cccs1,-3.6%,-16.4%
CN(CCOc1ccc(C=C2C(=O)NC(=O)NC2=O)cc1)c1ccccn1,-5.9%,-13.1%
NC(=O)C1(NC(=O)[C@@H]2CC3(CC(c4cccc(NC(=O)[C@@H]5CCC(=O)N5)c4)=NO3)CN2C(=O)Cc2ccc(Cl)cc2)CC1 (stereo partly specified),1.4%,i
Cc1cc(Cl)ccc1OCC(=O)NNC(=O)c1cccnc1,-4.1%,-0.3%
COc1cc(OC)c(C2Oc3nc(SC)nnc3-c3ccccc3N2C(C)=O)cc1OC (stereo unspecified),10.6%,6.7%
Cc1cccc(N2CCN(S(=O)(=O)c3cc(Br)cc4c3N(C(=O)C3CC3)CC4)CC2C)c1 (stereo unspecified),-10.5%,-21.8%
Cc1ccccc1N(CC(=O)NC1CCCCC1)C(=O)c1csnn1,-10.2%,0.6%
O=C(Nc1ccc(Cl)cc1)NC1CCCCC1Cc1ccco1 (stereo unspecified),?,?
CCOC(=O)c1cc2c(cn1)[nH]c1ccccc12,-17.0%&-11.8%&-14.9%,-3.3%&-3.7%&-23.1%
CC1(C)CC(=O)C2=C(C1)NC1=C(C(=O)c3ccccc31)C2c1ccc(O)cc1 (stereo unspecified),11.2µM*,?
COc1ccccc1CCN1C(=S)NC(C)(C)CC1(C)O (stereo unspecified),?,/
Cn1nc(C(=O)N2CCN(c3ccc(Cl)cc3)CC2)c2c1-c1ccccc1S(=O)(=O)C2,-26.1%&1.2%,-6.6%
Cc1cccc(C(=O)NNC(=O)CN2C(=O)c3ccccc3C2=O)c1,-4.3%,i
# Following part
SMILES,VACV Venus inh,Vaccinia mCherry
CCOC(=O)c1c(C)n(CC(O)c2ccccc2)c2ccc(O)cc12 (stereo unspecified),-19.8%,-13.5%
CCOC(=O)Cc1cc(=O)[nH]c(Nc2nc3ccccc3o2)n1,-10.2%,-17.1%
COc1ccc(CN(C)C[C@H]2Oc3c(NC(=O)Nc4ccccc4)cccc3C(=O)N([C@H](C)CO)C[C@@H]2C)cc1,?,-11.3%
O=C(C1CCC(CNS(=O)(=O)c2cccc3nsnc23)CC1)N1CC=C(c2ccccc2)CC1 (stereo unspecified),-26.3%,?
OCCCN1c2ccccc2Nc2nnc(-c3ccccc3)cc21,-25.7%,-18.0%[1.46 µM]
Cc1ccsc1C1CC(=O)Nc2ccccc2S1 (stereo unspecified),-18.2%,-2.4%
COc1ccc(OC)c(/C(C)=N/Nc2ccc(C(=O)O)cc2)c1,-10.3%,-8.9%
CC(C)c1nc(SCC(=O)Nc2cccc(C(F)(F)F)c2)c2c(=O)n(C)c(=O)n(C)c2n1,-25.5%,i
O=C(NCCCNC(=O)c1cncc(O)c1)c1cncc(O)c1,-11.1%,3.1%
CC(C)c1ccccc1NC(=O)c1ccco1,-6.9%,-5.0%
Cc1cc(C)n(-c2ccc(C(=O)Nc3ccc(C)c(S(=O)(=O)N(C)C)c3)cc2)n1,?,?
CCCn1c(/N=C/c2cc(OC)ccc2O)nc2ccccc21,-17.1%,-24.6%
COc1ccc(NC(=O)CN2CCN(C(=O)c3ccco3)CC2)c(OC)c1,-7.1%,-5.7%
CN(C)c1ccc(C(=O)OCC(=O)NCCNC(=O)COC(=O)c2ccc(N(C)C)cc2)cc1,-9.6%,i
CCOc1ccc(NC(=O)Cn2cc(C(=O)c3ccc(CC)cc3)c(=O)c3cc(OC)c(OC)cc32)cc1,-16.4%,i
O=C(Nc1ccc(Cl)cc1)Nc1nnc(-c2ccncc2)s1,-26.0%,-7.9%
CSc1ncc(Cl)c(C(=O)Nc2ccccc2Cl)n1,-11.2%,-0.9%
COc1ccc(OC)c(/C=N/N(C)c2ccccc2)c1,-10.5%,/
CN(C)/C=C(\C#N)C(=O)Nc1ccccc1,-9.3%,i
O=C(O)C=C(Br)Br,-6.6%,-1.7%
COc1cc(C(=O)NCC(c2cccs2)N2CCOCC2)cc(OC)c1OC (stereo unspecified),-6.7%,-4.3%
CCn1c2ccc(F)cc2c2nc3ccccc3nc21,4.6%,11.0%
O=C(Cn1cc(SCc2ccc(F)cc2)c2ccccc21)N1CCCCC1,-10.8%,-11.6%
CC1(C)CN(CCc2ccccc2)C(=O)[C@H]1CC(=O)Nc1ccccc1,-14.5%,-10.1%
CCCCC[C@H](C)N1C[C@@H](COCc2ccccc2)Oc2cc(N3CC[C@H](O)C3)ccc2S1(=O)=O,-9.2%,-6.8%
O=C(N/N=C/c1ccco1)Nc1ccccc1,-2.9%,-8.3%
O=C(Cn1ccn(-c2ccc(F)c(F)c2)c(=O)c1=O)NCCc1ccccc1,0.7%,-8.7%
Cc1cc(C)c(S(=O)(=O)c2ccccc2C)c(OCCO)n1,-13.6%,-3.3%
Cc1onc(-c2c(Cl)cccc2Cl)c1C(=O)N1CCN(c2ccccc2F)CC1,-24.3%,-11.8%
CSc1ccc(S(=O)(=O)Nc2c(C)cccc2C)cc1,-13.6%,-3.1%
Cc1cccc(NC(=S)Nc2ccc(Cl)c(Cl)c2)c1,-10.2%,-18.6%
Cc1cc(=O)[nH]c(Cc2ccc(OC(C)C)cc2)n1,-11.1%,i

# 2 compounds drawn at random from the list so far:
SMILES,VACV Venus inh,Vaccinia mCherry
COc1cc(C(=O)NCC(c2cccs2)N2CCOCC2)cc(OC)c1OC (stereo unspecified),-6.7%,-4.3%
Cc1cc(=O)[nH]c(Cc2ccc(OC(C)C)cc2)n1,-11.1%,i
